High-throughput results from PubChem BioAssay.
MgrA DNA FP: modulators of Staphylococcus aureus MgrA DNA binding | fluorescence polarization | inhibition, %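 (about 10 µg/mL by stock and volumes)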 | 0.13% of 84,000 active;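 active = above 50% in either of two replicates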;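 also: 0% = protein plus DNA without compound and 100% = DNA alone without protein; higher means less MgrA bound to DNA so lower polarization; one replicate is shown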
S aureus helic: blocks Staphylococcus aureus DNA helicase. purified S. aureus helicase, fluorescence unwinding assay; about half of the hits fall short of the stated cut. 0.05% of 120,000 active. inhibition, %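 (tested at about 80 µM)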. AID 485395;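 active = both duplicates at 50% or more, or one of them with a favoured structure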;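 also: 0% = mean of negative control wells and 100% = mean of positive control wells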
The depositor's hits bear a star; · = no result given. An excerpt; the hit share may differ from the screen's.

SMILES	MgrA DNA FP	S aureus helic
COc1ccc(CCNC(=O)COc2ccc(-c3noc(C)n3)cc2)cc1OC	·	-11
CCc1ccc(NC(=O)c2ccc3c(c2)OCO3)cc1	1.5	-14
S=c1[nH]nc(-c2ccccc2)n1N=Cc1cccs1	8.3	18
O=C(O)C1CCN(C(=O)c2ccc3c(c2)OCO3)CC1	-3.8	·
COCCN1C(=O)c2ccccc2C(C(=O)N2CCN(c3ccccc3OC)CC2)C1c1ccc(F)cc1 (stereo unspecified)	·	-22
CCCc1nc2c(o1)OC(N)=C(C#N)C2c1cccc(O)c1 (stereo unspecified)	-1.0	9
CCc1ccc(NC(=O)C(OC)c2ccccc2)cc1 (stereo unspecified)	0.0	8
Cc1ccccc1OCC(O)CNC(C)C1CC2CCC1C2 (stereo unspecified)	·	-1
Nc1c(S(=O)(=O)c2ccccc2)c2nc3ccccc3nc2n1-c1cccc(S(N)(=O)=O)c1	·	-15
O=C(Nc1ccc(F)cc1)C1CC(=O)N(Cc2ccc3c(c2)OCO3)C(=Nc2ccccc2)S1 (stereo unspecified)	-1.7	·
O=C(NCCSC1CCCCC1)c1ccco1	-1.1	7
COc1ccc(C(=O)OCC(=O)Nc2ccc3[nH]c(=O)[nH]c3c2)cc1	·	-6
CCOC(=O)c1c(-c2ccccc2)nc(=O)[nH]c1-c1ccc(-c2ccc(F)cc2)o1	-0.8	22
Cc1ccccc1NC(=O)CCCn1nc(C)c2c(C)n(-c3ccccc3)nc2c1=O	·	-10
COc1cccc(OCc2ccc(Cl)cc2)c1C#N	-3.8	·
OCCN1CCN(c2cc(C(F)(F)F)nc3ccccc23)CC1	-2.3	·
CC1=C(C(=O)Nc2ccccc2)C(C2CCCCC2)C(C#N)=C(N)O1 (stereo unspecified)	-2.0	-26
COc1ccc(N2CCN(C(=O)C(CCSC)N=C3NS(=O)(=O)c4ccccc43)CC2)cc1 (stereo unspecified)	·	-7
CCC(C)(C)NC(=O)c1cc(Cl)ccc1OC	-0.9	13
Cc1cc(C(=O)c2ccccc2C(=O)O)c(C)c(C)c1C	-0.4	·
CC(C)c1ccc(OCc2ccc(C(=O)NCc3ccco3)cc2)cc1	2.5	-7
CCN(CC)S(=O)(=O)c1ccc(N2CCN(C(=O)c3ccccc3)CC2)nc1	·	3
C1CCN=C(Nc2nc3c(s2)CCCC3)CC1	·	-20
O=C(/C=C1\Sc2ccccc2NC1=O)NC1CC1	0.2	4
CCOC(=O)c1c(NC(=O)COC(=O)c2cn(CC)c3nc(C)ccc3c2=O)sc2c1CCCC2	-0.4	-14
CS(=O)(=O)N1CCC(NC(=O)Cc2ccccc2)CC1	-0.7	-3
CCc1nnc(NC(=O)c2ncn[nH]2)s1	-0.1	18
COc1ccc(OCC(=O)Nc2cccnc2)cc1	1.0	0
Cc1c(C#N)c2ncnc(-c3ccccc3)c2n1Cc1ccccc1	-0.2	1
Cc1ccc2nc(-c3ccsc3)c(NCC(=O)NN)n2c1	·	-30
N#C/C(=C\Nc1ccccn1)C(=O)c1ccc(OC(F)(F)F)cc1	-2.5	·
COc1ccc(C(=O)NCCc2sc(-c3cccc(C)c3)nc2C)cc1	3.3	-3
CCOC(=O)CCc1c(C)nn(-c2ccc(Cl)nn2)c1C	-0.8	2
CC(C)S(=O)(=O)c1c(SCC#N)sc(C#N)c1N	·	8
CC(=O)N/C(=C\c1ccccc1)C(=O)OCc1c(C)noc1C	·	17
Cc1cccn2cc(CN3CCCc4ccccc43)nc12	·	-4
N#CCS(=O)(=O)c1ccccc1F	2.2	·
C=CCn1c(=O)c2c3c(sc2n2c(Nc4ccccc4)nnc12)CCCC3	2.7	5
Cc1cc(C)cc(CC(CC(=O)Nc2nncs2)C(=O)Nc2nncs2)c1 (stereo unspecified)	-3.4	4
Cc1ccc(N2C(=O)NC(=O)/C(=C\c3ccco3)C2=O)c(C)c1	·	9
Cn1cnnc1SC1c2cccc3cccc(c23)C1NS(C)(=O)=O (stereo unspecified)	·	11
O=C(OCc1nc2ccccc2s1)c1cc(=O)[nH]c(=O)[nH]1	·	-12
COC(=O)Cc1c(C)c2ccc(O)c(C)c2oc1=O	·	29
O=c1c2ccccc2n(Cc2ccccc2)c(=O)n1Cc1nc(-c2ccccc2)no1	·	-23
Cc1ccc(NC(=O)CCN2C(=O)c3ccccc3Sc3ncccc32)c(C)c1	-2.0	9
CCN(CC)c1cccc(OC(=O)c2cccnc2Cl)c1	0.2	1
c1ccc(CCNC2=NCCCS2)cc1	-0.7	-14
CN(CCc1ccccn1)C(=S)Nc1ccc(Cl)cc1Cl	-1.2	8
c1csc(Cc2nc3c4ccccc4ncn3n2)c1	-3.0	6
COC(=O)CCC(=O)Nc1ccc(Cl)cc1	2.5	0
CN(C)Cc1nc2ccccc2c(=O)n1Cc1nc(-c2cc3ccccc3o2)cs1	·	-11
O=C(CSc1ccccn1)c1ccc(F)cc1	7.2	-7
CC1=CC(C)(C)N(C(=O)c2ccccc2)c2ccccc21	·	25
O=C(O)CCC(=O)Nc1ccc2ccccc2c1	-3.7	12
O=[n+]1cc(-c2cccc(C(F)(F)F)c2)n([O-])c2c1CCC2	0.6	13
CC(=O)N1CCN(S(=O)(=O)c2cccc(C(=O)Nc3ccnn3C(C)C3CC3)c2)CC1 (stereo unspecified)	·	11
COc1ccc(/C=C/C(=O)NC(C)(C)C)cc1	-1.4	6
CC(C)c1ccccc1NC(=O)c1cccs1	-0.7	16
C=CCOc1cccc(C(=O)NCCC)c1	0.2	7
CSc1nc2nccc(N)n2n1	-2.3	·

Brought forward from above: 4 entries, followed by the next part.
SMILES	MgrA DNA FP	S aureus helic
COc1ccc(/C=C/C(=O)NC(C)(C)C)cc1	-1.4	6
CC(C)c1ccccc1NC(=O)c1cccs1	-0.7	16
C=CCOc1cccc(C(=O)NCCC)c1	0.2	7
CSc1nc2nccc(N)n2n1	-2.3	·
O=C1NC2C=NN(c3ccccc3)C(=O)C2NC1=O (stereo unspecified)	-1.2	7
COc1cc(C(=O)Nc2ccc3c(c2)CCN3C(C)=O)cc(OC)c1OC	1.9	27
CC(C)(C)NC(=O)CCCN1C(=O)/C(=C/c2ccccc2)SC1=S	2.7	8
CC(C)(C)NCc1ccccc1OCc1cccs1	-2.5	-5
CCOC(=O)N1CCC(NC(=O)c2nn(C)c3c2CS(=O)(=O)c2ccccc2-3)CC1	-1.6	0
CC1(C)CC(n2c(=O)c3c(n4cnnc24)-c2ccccc2CC32CCCCC2)CCO1 (stereo unspecified)	0.1	5
COc1ccc(/C=C2\SC(=S)N(CCCC(=O)Nc3c(C)n(C)n(-c4ccccc4)c3=O)C2=O)cc1	-1.5	·
CC1=NN(c2ccc(C)c(C)c2)C(=O)/C1=C\c1ccc(-c2ccc(S(N)(=O)=O)cc2)o1	0.6	10
OC(CC#CCN1CCOCC1)(c1ccccc1)C1CCCC1 (stereo unspecified)	·	2
COc1ccc(CN2C(=O)c3ccccc3C2C(=O)NC2CCCC2)c(OC)c1 (stereo unspecified)	·	18
COc1ccc(CN(C(=O)NC2CCCC2)C2CCN(C(C)=O)CC2)cc1	·	23
CN(C)C(=S)SCC(=O)Nc1ccc(C#N)cc1	·	6
O=C(NC1CC1)C1CCN(C(=O)c2ccc(Cl)cc2)CC1	-3.6	18
CSc1scc2c1C(=O)CC(C)(C)C2	-1.6	·
CCCn1cc(S(=O)(=O)CC(=O)Nc2ccc(C)cc2)c2ccccc21	1.0	10
CCOC(=O)C1C(=O)OC2(CCCCC2)C1C#N (stereo unspecified)	2.5	7
Cc1cc(=O)oc2cc(OCC(=O)N3CCCC3)ccc12	-0.8	-35
O=C(c1ccco1)N1CCN(C(=O)c2cc3c(s2)CCCC3)CC1	-0.7	-12
Cc1cccc(C2(O)C(=O)c3ccccc3C2=O)c1O	-2.7	·
COc1ccc(-c2cc(C(F)F)n3ncc(C(=O)N4CC(C)OC(C)C4)c3n2)cc1 (stereo unspecified)	·	-19
O=C(NCc1ccccc1)c1ccc2c(c1)N(Cc1ccccc1)C(=O)CS2=O (stereo unspecified)	·	19
C=CCc1ccc(OCC(=O)ONN)c(OC)c1	0.0	8
O=S(=O)(c1ccccc1)c1ncc(C(F)(F)F)cc1Cl	1.9	·
O=C(CSc1ccc2c(c1)CCC2)NN1C(=O)NC2(CCCCC2)C1=O	·	7
Cc1ccc(-c2cn3c4ccccc4nc3n2CCCN2CCCCC2)cc1	-1.4	6
OCCc1nc2ccccc2s1	·	7
CNC(=O)Cn1cc2c(n1)-c1c(oc(C(=O)N3CCCC3)c1C)CC2	0.3	4
COc1ccc2c(CC(=O)OCc3cccc(C#N)c3)coc2c1	·	-6
CCN(Cc1ccccc1)c1ccc(C=Nc2ccc(O)cc2)cc1	-0.4	-32
CC1CCC2(CC1)NC(=O)N(NC(=S)NCc1ccc3c(c1)OCO3)C2=O (stereo unspecified)	·	-9

Part of the list above in order of length of the SMILES, rising.
SMILES	MgrA DNA FP	S aureus helic
OCCc1nc2ccccc2s1	·	7
CSc1scc2c1C(=O)CC(C)(C)C2	-1.6	·
C=CCc1ccc(OCC(=O)ONN)c(OC)c1	0.0	8
CN(C)C(=S)SCC(=O)Nc1ccc(C#N)cc1	·	6
Cc1cccc(C2(O)C(=O)c3ccccc3C2=O)c1O	-2.7	·
Cc1cc(=O)oc2cc(OCC(=O)N3CCCC3)ccc12	-0.8	-35
O=S(=O)(c1ccccc1)c1ncc(C(F)(F)F)cc1Cl	1.9	·
O=C(NC1CC1)C1CCN(C(=O)c2ccc(Cl)cc2)CC1	-3.6	18
Cc1ccc(-c2cn3c4ccccc4nc3n2CCCN2CCCCC2)cc1	-1.4	6
O=C(c1ccco1)N1CCN(C(=O)c2cc3c(s2)CCCC3)CC1	-0.7	-12
CCCn1cc(S(=O)(=O)CC(=O)Nc2ccc(C)cc2)c2ccccc21	1.0	10
CNC(=O)Cn1cc2c(n1)-c1c(oc(C(=O)N3CCCC3)c1C)CC2	0.3	4
O=C(NCc1ccccc1)c1ccc2c(c1)N(Cc1ccccc1)C(=O)CS2=O (stereo unspecified)	·	19
COc1ccc(-c2cc(C(F)F)n3ncc(C(=O)N4CC(C)OC(C)C4)c3n2)cc1 (stereo unspecified)	·	-19

Next section.
SMILES	MgrA DNA FP	S aureus helic
N#Cc1c2c(c(-n3ccnc3)n3c1nc1ccccc13)CCC2	3.0	-11
CN(Cc1ccco1)C(=O)CSc1nn2c(=O)c(C(C)(C)C)nnc2s1	·	4
NN1C(=O)c2ccccc2C1=O	·	7
N#CC1C(=S)NC2=C(CCCC2)C12CCCCC2 (stereo unspecified)	·	3
CCOc1ccc(-c2nc(CN3CCN(S(=O)(=O)c4ccc(Cl)cc4)CC3)cs2)cc1	·	-4
CCCCNC(=O)C1CCN(S(=O)(=O)c2cnc[nH]2)CC1	·	-10
CC1Cc2ccccc2N1C(=O)CSc1nnc(CSc2ncccn2)n1C (stereo unspecified)	3.5	-1
Cc1ccc(NC(=O)C2CC2)cc1NC(=O)C1CC1	1.4	-13
CC(=O)O/N=C(\C)c1[nH]c(C)c(/C(C)=N/OC(C)=O)c1C	0.8	2
O=C(CN1N=C(c2ccccc2)CCC1=O)NCCN1CCN(c2ccccc2F)CC1	·	4
C=CCSc1ccccc1N	·	17
CC(C)(C)c1cnnn1-c1ccc(NC(=O)c2ccc(Br)o2)cc1	·	12
O=C(c1ccccc1)c1cccnc1C(=O)O	0.0	·
N#Cc1cnc(C2COc3ccccc3O2)nc1N (stereo unspecified)	4.6	·
CN(C)CCNC(=O)c1cc(-c2cccs2)nc2ccccc12	-2.5	3
N#Cc1c(-c2ccco2)c2c([nH]c1=O)-c1ccccc1OC2	·	-72
O=C(NCCSC(=O)c1ccc(F)cc1)c1ccc(F)cc1	-3.0	·
O=C(O)C1CCOCC1	-4.0	22
CCOC(=O)CCn1ccc(=O)[nH]c1=O	4.2	-7
COc1c(O)c2c(=O)cc(OC)c3c4c(OC)cc(=O)c5c(O)c(OC)c(C[C@@H](C)OC(=O)c6ccccc6)c(c(c1C[C@@H](C)OC(=O)Oc1ccc(O)cc1)c23)c54	-1.8	·
CCC(=O)Nc1ccccc1N1CCN(C(=O)CC)CC1	1.6	3
Cc1ccc2c(Cl)cc(Cl)c(OC(=O)C3CC3)c2n1	·	-11
O=C(NC(=O)C(F)(F)F)N1CCCc2ccccc21	3.5	10
O=C(COc1ccc(Cl)cc1Cl)Nc1ccc(-c2nnc3n2CCCCC3)cc1	2.6	8
O=C(O)CCSc1n[nH]c(=S)s1	·	-8
CC1(C)CC(NC(=O)C(F)(F)F)C(NC(=O)C(F)(F)F)C(C)(C)N1 (stereo unspecified)	-2.5	16
O=C(NC(=S)Nc1nc(-c2ccc(Cl)cc2)cs1)C1CC1	-0.7	·
CC(C)(C)c1ccc(CSCc2nc3ccccc3[nH]2)cc1	3.7	17
COc1ccc(CN2CCN(C(=O)Cn3c(=O)c4cccn4c4cccnc43)CC2)c(OC)c1OC	·	-31
O=C(CSc1nccn1-c1ccc(F)cc1)Nc1ccccc1	·	3
O=c1oc2c(Cl)cc(Cl)cc2cc1-c1nnc(Nc2ccc(F)cc2)s1	-1.7	·
O=C(CSc1ncccn1)Nc1nccs1	2.0	11
CC(C)(C)C1=CC=Nn2cnnc2S1	·	20
CCCC1C(C#N)=C(N)Oc2n[nH]c(CC(=O)OCC)c21 (stereo unspecified)	·	-1
COc1ccc(C2(Cc3nc4ccccc4[nH]3)C(=O)c3ccccc3C2=O)cc1	5.1	-3
COc1ccc(CNC(=O)Cn2cnc3ccccc32)cc1OC	·	41*
CCOC(=O)C(C)ON1C(=O)c2ccccc2C1=O (stereo unspecified)	1.4	-11
Cc1ccc(NC(=O)CN(C)C(=O)Cc2ccccc2F)cc1	·	10
O=C(Cn1cccc1C(=O)c1ccccc1)NCCCN1CCc2ccccc2C1	·	1
Cc1noc(C)c1CSc1nc(N)c(-c2nc(-c3ccccc3)cs2)cc1C#N	·	-10
O=C1OCCC1n1nnc(-c2ccc(F)cc2)n1 (stereo unspecified)	·	12
CN1/C(=C/C(=O)C2CCC2)C(C)(C)c2ccccc21	·	-13
